SmPrx2 inh: inhibitors of Schistosoma mansoni peroxiredoxin 2 | Potency, µM | actives 0.07% (n = 65,000) | AID 448 | S. mansoni Prx2 activity coupled to TGR/GSH (TGR is thioredoxin glutathione reductase), NADPH fluorescence loss, qHTS; some inactives read as strong as hits; active means full or partial inhibition curve with a strong effect at the top dose; inconclusive means weaker partial or single-point curve; inactive means no accepted curve; further: series up to 57 µM; many of its hits are not listed in these tables
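Purified S. mansoni TGR and Prx2 in pH 7.4 phosphate buffer with EDTA and Tween-20 were preincubated with compounds for 15 min. Further NADPH/GSH was added, then a 2.5 mM H2O2 aliquot initiated turnover, followed kinetically by NADPH fluorescence.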
Anthrax LT inh: inhibitors of anthrax lethal toxin internalization. Cells, anthrax lethal toxin internalization, FRET ratio (460/530). Potency, µM (series often up to 40 µM), without a hit: top-dose activity change, negative = inhibition, most hits filed as inhibitors. actives 0.67% (n = 70,000). AID 912; active = well fitted falling ratio curve with the 530 nm signal flat; inconclusive = other ratio curves, or a change in one channel alone; inactive = flat curves in the ratio and both channels; the % refers to the ratio; further: on the % scale 0 is the no-effect control and ±100 the full control effect; nearly all actives have a fitted effect of over 50% in size; tested in ME-180 cells; beta-lactamase reporter
An asterisk follows results filed as active; u = inconclusive; x = no result given; & = joins results of further samples; [ ] = another dose, or the depositor's remark. Potency means the concentration at half of the fitted maximal effect.

Every second line gives: SmPrx2 inh, Anthrax LT inh
COc1cccc(CSCC(=O)O)c1
 : >57, u
Nc1nc2sc3c(c2cc1C(=O)N1CCOCC1)CCCC3
 : x, 5.5%
O=C(O)C1CCCN1c1ncnc2c1oc1ccccc12 (centres undefined)
 : >57, 6.8%
Cc1cc2c(c(=O)n1Cc1cccnc1)C(Cc1ccccc1)C(C#N)=C(N)O2 (centres undefined)
 : >57, -2.6%
Cn1c(=O)cc(OCCCC(=O)N2CCN(c3ccccc3)CC2)c2ccccc21
 : >57, 4.1%
CC(=O)CC(=O)Nc1cccc2c1CCCC2
 : x, -7.7%
CCNCC1(c2ccc(OC)c(OC)c2)CCCC1
 : >57, u
CCOC(=O)N1CCN(C(=O)CSc2nnc(-c3cc(OC)cc(OC)c3)o2)CC1
 : >57, -6.7%
CN1C(=O)C(O)(CC(=O)c2ccccc2O)c2cc(Br)ccc21 (centres undefined)
 : >57, -29.5%
CCOc1ccc(C(=O)Nc2c3c(nn2-c2ccc(F)cc2)CS(=O)C3)cc1 (centres undefined)
 : >57, -14.2%
CCCn1c(NCc2cc(OC)ccc2OC)nc2ccccc21
 : >57, -14.8%
CN1CCN(S(=O)(=O)c2ccc(Cc3ccc(S(=O)(=O)N4CCN(C)CC4)cc3)cc2)CC1
 : >57, u
CCCC1CC(C)(C(=O)Cn2[nH]c(=O)ccc2=O)OC1=O (centres undefined)
 : >57, 13.5%
COc1ccc(OC)c(S(=O)(=O)NCc2cn3cccc(C)c3n2)c1
 : >57, 11.6%
CCOC(=O)c1cccc(NC(=O)CSc2nnnn2C)c1
 : >57, -13.1%
CC(C)CC1(C)NC(=O)N(CC(=O)NC(=O)Nc2ccc3c(c2)OCCO3)C1=O (centres undefined)
 : >57, 23.8%
COc1cccc(N2CC(C(=O)NC3CCCCC3)CC2=O)c1 (centres undefined)
 : >57, -6.2%
COc1ccccc1-c1nccc(NC2CCNCC2)n1
 : >57, -3.9%
CCCNC(=O)c1cc(-c2ccc(O)cc2)on1
 : >57, -0.1%
COc1ccc2c(C(=O)CN3CC(C)OC(C)C3)c[nH]c2c1 (centres undefined)
 : >57, -3.6%
CCc1c(C)sc(NC(=O)c2cnn3cccnc23)c1C#N
 : x, 1.9%
Cc1ccc(S(=O)(=O)N2CCCC(C(=O)NCCCN3CCCCC3C)C2)cc1 (centres undefined)
 : >57, -15.2%
N#Cc1nn(-c2ccccc2)nc1N1CCCCC1
 : >57, u
O=C(NCCN1CCCCCC1)c1ccc(CS(=O)(=O)c2ccc(Br)cc2)o1
 : >57, u
O=C(CSc1nnnn1C1CCCCC1)N1CCCC1
 : >57, 15.8%
Cc1nn(C)c(C)c1NC(=O)CSc1nc(Cc2ccccc2)nc2c1cnn2-c1ccccc1
 : >57, -2.0%
COc1ccc(-c2[nH]ncc2-c2cnc(C)s2)c(O)c1
 : x, 2.1%
NC(=O)CI
 : u, 0.5%
CCC1(C)COC2(OC1)C(=O)Nc1ccccc12 (centres undefined)
 : >57, 5.8%
O=C1C2CCCN2C(c2cccnc2)N1c1ccc(Cl)c(Cl)c1 (centres undefined)
 : >57, -7.3%
COC(=O)c1c(C)[nH]c(C(=O)CN2CCOCC2)c1C
 : >57, -4.1%
CS(=O)(=O)N(CC(N)=O)Cc1ccc(Cl)cc1
 : >57, -7.8%
O=C(NCC(F)(F)F)Nc1ncccn1
 : >57, 0.9%
c1ccc2[nH]c(CSc3ncnc4c3oc3ccccc34)nc2c1
 : >57, x
Cn1nnnc1SCC(=O)NC(C)(C)C
 : >57, -10.1%
Cc1c(C(=O)NCc2ccccc2)oc2ccc(S(=O)(=O)N3CCCC3)cc12
 : >57, u
CC(NC(=O)NC1CCCCC1)C(c1cccs1)N1CCN(C)CC1 (centres undefined)
 : >57, -2.4%
CCCC[C@@H]1C[C@H]1C(NC(=O)c1ccc(-c2ccccc2)cc1)c1ccc(-c2ccccc2)cc1 (some centres undefined)
 : >57, u
O=C(C1CCN(S(=O)(=O)c2cccc3cccnc23)CC1)N1CC=C(c2ccccc2)CC1
 : >57, 12.6µM*
Cc1noc(C)c1S(=O)(=O)N1CCC(C(=O)N2CCN(c3ccccc3Cl)CC2)CC1
 : >57, -12.5%

A different layout for some results above.
O=C1C2CCCN2C(c2cccnc2)N1c1ccc(Cl)c(Cl)c1 (centres undefined)
  SmPrx2 inh = >57; Anthrax LT inh = -7.3%

NC(=O)CI
  SmPrx2 inh = u; Anthrax LT inh = 0.5%

Cc1noc(C)c1S(=O)(=O)N1CCC(C(=O)N2CCN(c3ccccc3Cl)CC2)CC1
  SmPrx2 inh = >57; Anthrax LT inh = -12.5%

CS(=O)(=O)N(CC(N)=O)Cc1ccc(Cl)cc1
  SmPrx2 inh = >57; Anthrax LT inh = -7.8%

The list continues.
Every second line gives: SmPrx2 inh, Anthrax LT inh
CCN(CC)c1ccc(C(=O)OCC(=O)c2ccco2)cc1
 : >57, -4.0%
Cc1[nH]nc2c1C1(CCN(C(=O)OCc3ccccc3)CC1)C(C#N)=C(N)O2
 : >57, -5.0%
CCn1c(=O)c2cc(C(=O)N3CCN(C(=O)c4ccco4)CC3)sc2c2ccccc21
 : >57, -12.2%
Cn1c(CSc2ncccn2)nnc1SCC(=O)N1CCCc2ccccc21
 : >57, -8.7%
NC(=O)COc1ccc(NC(=O)OCc2ccccc2)cc1
 : >57, u
COc1cc2c(cc1OC)C(C)N(C(=O)c1cc3n(n1)C(C(F)(F)F)CC(c1ccco1)N3)CC2 (centres undefined)
 : >57, -7.8%
CC1=C(C(=O)N2CCCCCC2)C2(CCC(C)CC2)OC1=O (centres undefined)
 : >57, -8.3%
C=CCOC(=O)C(C#N)c1nc2ccccc2nc1N1CCN(Cc2ccccc2)CC1 (centres undefined)
 : >57, 17.3%
CCOc1ccc2nc(NCCNC(=O)Nc3cccc(C)c3)c(C#N)cc2c1
 : >57, u
CC1(C)CC(NC(=O)CCC2CCCC2)CC(C)(C)N1
 : x, 1.9%
Nc1nnc(CCS(=O)(=O)c2cc(Cl)ccc2Cl)s1
 : >57, -0.4%
CCCCOc1cccc(OCCCC)c1C(=O)Nc1cc(C)on1
 : >57, -9.4%
O=C1COc2ccc(C(=O)NCc3ccco3)cc2N1
 : >57, 12.2%
CCC(O)OC(O)CC (centres undefined)
 : x, 2.4%&-9.9%
O=C(c1ccncc1)N1CCC[C@@]2(CCN(c3ncccn3)C2)C1
 : >57, 7.0%
O=C(CCN1C(=O)C2C3C=CC(C3)C2C1=O)NCc1cccnc1 (centres undefined)
 : >57, -11.6%
CC1CCc2nc3ccc(S(=O)(=O)N4CCC(C(=O)NC5CCCC5)CC4)cc3c(C(=O)O)c2C1 (centres undefined)
 : >57, -2.1%
CCCCOC(=O)n1c(SCC(=O)N(C)C)nc2ccccc21
 : >57, 17.4%
CC(=O)N1CCC(N(C(=O)Nc2ccc(C)c(C)c2)C2CCCC2)CC1
 : >57, u
Cc1ccc(-c2nnc(N3CCN(S(C)(=O)=O)CC3)c3ccccc23)cc1
 : >57, -10.4%

Next entries
SMILES | SmPrx2 inh | Anthrax LT inh
CC(C)OCCCNC(=O)c1sc(=S)n(C)c1N | >57 | 1.2%
OC(CN1CCN(c2ccccc2)CC1)c1ccc2c(c1)CCN2 (centres undefined) | >57 | -1.1%
COc1ccc(S(C)(=O)=O)cc1S(C)(=O)=O | >57 | -4.8%
O=C(Nc1cnc2ccccc2c1)c1ccco1 | >57 | -1.0%
Cc1ccc2nc(-c3ccc(S(=O)(=O)N4CCOCC4)cc3)cn2c1 | >57 | -0.7%
Cc1ccc(C(=O)NCCCN2CCOCC2)cc1N1CCCC1=O | >57 | 6.0%
CCN1CCc2c(sc3c2c(NCc2ccco2)nc2nnnn23)C1 | >57 | u
Cc1cc(=O)oc2c(C)c(OCC(=O)N(C)C)ccc12 | >57 | 10.1%
Cc1cc(C(=O)COC(=O)CN(C)S(=O)(=O)c2ccc(Cl)cc2)c(C)n1CC1CCCO1 (centres undefined) | >57 | -0.4%
O=S(=O)(c1ccc(F)cc1)N1CCC(O)(c2ccc3c(c2)OCO3)CC1 | >57 | -12.1%
CC(=O)c1cccc(N(CC(=O)NCC2CCCO2)C(=O)CCC(=O)Nc2cc(C)on2)c1 (centres undefined) | >57 | 0.6%
CCn1c(SCC(=O)c2cc(OC)ccc2OC)nnc1-c1ccncc1 | >57 | x
Nc1ccccc1C(=O)OCCc1ccccc1 | x | u
COc1ccc(N2CCN(S(=O)(=O)/C=C/c3ccccc3)CC2)cc1 | >57 | -7.5%
Cc1oc(-c2ccccc2)nc1Cn1cccc1C1=NC(c2ccccc2)CO1 (centres undefined) | >57 | u
COc1ccc2[nH]c3c(NCCN(C(C)C)C(C)C)ncnc3c2c1 | >57 | u
COc1ccc2[nH]c3c(c2c1)CCN=C3C | >57 | 2.2%[3.58 µM]
CCN(CC)C(=O)N1CCC(NC(=O)c2ccccc2)CC1 | >57 | -3.9%
Cc1cc(C)cc(N(CC(=O)NCc2ccco2)S(=O)(=O)c2c(C)noc2C)c1 | >57 | 5.1%
COc1cc(-c2nc(N)n[nH]2)cc(OC)c1OC | >57 | -3.0%
NC(=O)N[C@H](CC(=O)O)C(=O)O | >57 | -5.4%[8 µM]
CCc1nc2oc3cc(OC)ccc3c(=O)c2c(=O)n1-c1ccccc1 | >57 | 0.2%
CCOc1ccc(-c2nnc3ccc(SC)nn23)cc1 | >57 | -7.1%
CC(C)N(Cc1nc(-c2ccc(Cl)cc2)no1)C(=O)CCC1CCCC1 | >57 | u
COC(=O)c1ccc(-c2nc(-c3cccs3)no2)cc1 | >57 | -15.8%
O=C(NCc1ccco1)c1sc(=S)n2c1[nH]c(=O)c1ccccc12 | >57 | u
O=C(Cn1c(=O)sc2ccccc21)NCc1ccccn1 | >57 | -5.0%
Cc1nc2ccccc2c(=O)n1-c1cccnc1 | >57 | 3.5%
CCn1c(=S)sc2c(=O)n(-c3ccccc3)c(SCC(=O)NCc3ccco3)nc21 | >57 | x
CCS(=O)(=O)c1nnnn1-c1ccccc1S(C)(=O)=O | >57 | 3.6%

Look-ups from the entries so far.
O=C(Cn1c(=O)sc2ccccc21)NCc1ccccn1 in SmPrx2 inh: >57
CC(C)OCCCNC(=O)c1sc(=S)n(C)c1N in Anthrax LT inh: 1.2%

(cont.)
SMILES | SmPrx2 inh | Anthrax LT inh
CCC(Sc1ccc2nnc(-c3ccc(F)cc3)n2n1)C(=O)O (centres undefined) | >57 | -1.0%
O=C(c1ccc(COc2c(F)c(F)cc(F)c2F)o1)N1CCN(c2ccc(Cl)cc2)CC1 | >57 | 7.9%
CCOC(=O)c1oc2ccccc2c1NC(=O)c1ccc(S(=O)(=O)N2CCCC2)cc1 | >57 | u
O=C(CCNS(=O)(=O)c1cccc2nonc12)NC1CCCc2ccccc21 (centres undefined) | >57 | -6.4%
O=C(CCCCn1c(=O)[nH]c2ccsc2c1=O)NCc1cccnc1 | >57 | 8.3%
CSc1nc(NCCOCCO)c2sc3nc(-c4ccco4)c4c(c3c2n1)CCC4 | >57 | u
COc1ccc(CC(=O)NC(C)c2nnc(SCC(=O)Nc3nc(C)cs3)n2C)cc1 (centres undefined) | >57 | 3.2%
C/C(CCC(=O)OC[C@@H]1O[C@H](C#Cc2ccccc2)C=C[C@@H]1Oc1ccc(C)cc1)=N/OC[C@@H](O)[C@H]1O[C@H]2OC(C)(C)O[C@H]2[C@@H]1O | x | u
CC(C)c1cc(C(F)(F)F)nc(NNc2nc(C(C)C)cc(C(F)(F)F)n2)n1 | >57 | -29.4%[8 µM]
CC(=O)Nc1ccc2c(c1)CCC2=O | >57 | -2.9%
O=C(CCN1C(=O)C2C3C=CC(C3)C2C1=O)NC1CCCc2ccccc21 (centres undefined) | >57 | 3.3%
CN1CCN(S(=O)(=O)c2ccc(NC(=O)c3cccc(S(=O)(=O)N4CCCC4)c3)cc2)CC1 | >57 | -4.0%
CC1CCc2sc3ncn4nc(C(=O)NCc5ccco5)nc4c3c2C1 (centres undefined) | >57 | u
Cc1cc(N)n2ncc(-c3cccc(Br)c3)c2n1 | x | u
CC1(C)CC(=O)C2=C(C1)OC(c1ccncc1)C(C#N)=C2N (centres undefined) | >57 | -1.1%
COc1ccc(NC(=O)c2ccc(-c3ccc(-c4noc(C)n4)cc3C)cc2)cc1N1CCN(C)CC1 | >57&>57 | u
CC1CCCN(c2ccc(C(=O)NCc3cccs3)cn2)C1 (centres undefined) | >57 | -13.5%
CCN(CC)C(=O)CSc1nnc(CCCCCNC(=O)OC(C)(C)C)o1 | >57 | u
CC(=O)c1cc(C)oc1C | x | 11.6%
COC(=O)c1ccc(CSc2nc(-c3ccc(OC)cc3)nc3c2c(=O)n(C)c(=O)n3C)o1 | >57 | x
COC(=O)C1=C(C)N=C2SCCC(=O)N2C1/C=C/c1ccccc1 (centres undefined) | x | 0.8%
COc1ccc(CCNC(=O)CN(C)S(=O)(=O)c2cccc3nsnc23)cc1OC | >57 | -8.4%
CC(C)(C)c1ccc(/C=C/C(=O)Nc2ccc3c(c2)OCCO3)cc1 | x | 3.98µM*
CCSc1nnc(NC(=O)C(CC)Oc2ccccc2)s1 (centres undefined) | >57 | 1.9%
COc1ccc(-n2c(SC3CCOC3=O)nc3ccccc32)cc1 (centres undefined) | >57 | 15.1%
CCC(c1nnnn1CCOC)N1CCN(C(=O)c2ccco2)CC1 (centres undefined) | >57 | 1.6%
COc1ccc(-c2nnc(SCCC(=O)O)n2-c2ccccc2)cc1 | >57 | 1.7%

This is a subset; count on the stated rates, not on these rows.
